Bioassay records as filed in PubChem BioAssay.
Bfl-1 A1 inh = caspase 3/7 activation in MEF A1-2A-BIM cells, primary screen, A1 inhibitor project, cell-based, luminescence, HTS; 0.066% of 330,000 active; Caspase-Glo 3/7 luminescence, 3 h; percent of clofoctol response, vehicle zero; caspase activation, % (no concentration beside the values);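 active = over half of replicate activation scores above 10%, or exactly half above 10 with the replicate mean above 10; inconclusive = replicate mean below 10 yet half the replicates above 10; inactive = over half of replicates below 10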;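 also: wells of about 30 µL received 50 nL stock; many hits fall short of the cut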
T cruzi repl = inhibitors of intracellular T. cruzi growth, primary screen, luminescence, NIH3T3 host cells; T. cruzi beta-gal in NIH3T3, 90 h; inhibition, % (concentration not given with the values); 1.4% of 300,000 active; AID 1885, 2009;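 active = mean inhibition across valid replicates above about 55%, limit read from the data; inconclusive = mean below that limit but half or more replicates reach it; inactive = mean below it, under half of replicates reach it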;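 also: signal also drops with host cell toxicity which is not excluded here; 0% = plate median of DMSO wells and 100% = zero luminescence signal; higher percent means less beta-gal luminescence so fewer parasites; stock transfer was 50 nL into about 50 µL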
AF4-AF9 inh = inhibitors of AF4 peptide binding to AF9, primary screen, biochemical, AlphaScreen, biotin-AF4 peptide, FLAG-AF9, single point; Protein AF-9 (Homo sapiens), P42568; inhibition, % at 10 µM; 0.47% of 350,000 active; AID 651704, 2012;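 active = every replicate reaching a set inhibition limit, whatever the replicate mean, cut at about 25% in these data; inconclusive = mean inhibition reaches that limit but some replicates miss it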;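 also: 0% = plate neutral control median and 100% = total signal loss; the record names both 10 and 1 µM as test concentration; the first replicate is given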
Target sequence (P42568 whole entry, looked up): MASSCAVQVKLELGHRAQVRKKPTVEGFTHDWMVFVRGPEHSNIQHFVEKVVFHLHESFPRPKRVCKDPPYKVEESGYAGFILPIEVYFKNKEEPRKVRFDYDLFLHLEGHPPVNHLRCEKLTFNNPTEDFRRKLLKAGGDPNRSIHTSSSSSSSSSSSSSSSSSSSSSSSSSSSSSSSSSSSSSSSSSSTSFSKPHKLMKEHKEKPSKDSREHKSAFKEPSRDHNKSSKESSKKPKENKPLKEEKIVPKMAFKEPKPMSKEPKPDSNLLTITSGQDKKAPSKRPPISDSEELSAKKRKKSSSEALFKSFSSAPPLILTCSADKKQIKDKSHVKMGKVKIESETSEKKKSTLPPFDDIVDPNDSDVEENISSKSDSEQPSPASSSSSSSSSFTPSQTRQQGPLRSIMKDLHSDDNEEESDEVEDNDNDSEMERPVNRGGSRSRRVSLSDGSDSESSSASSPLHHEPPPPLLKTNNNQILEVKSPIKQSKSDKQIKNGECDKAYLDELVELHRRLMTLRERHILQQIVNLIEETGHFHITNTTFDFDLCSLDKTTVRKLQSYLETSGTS
RanGTP-Impb inh = inhibitors of RanGTP-importin-beta interaction, primary screen, biochemical, FRET, CFP-Ran, YFP-importin-beta, homogeneous. Ran GTPase (GTP-bound) - importin-beta complex. cell-free CFP-Ran/YFP-importin-beta FRET ratio. AID 2216, 2009. 1.1% of 300,000 active. inhibition, % (no concentration beside the values);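 active = most replicates above 15%; inconclusive = exactly half above 15%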;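 also: 0% = DMSO wells and 100% = Ran loaded with GDP instead of GTP; wells of about 40 µL received 100 nL stock; the first replicate is given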
Beta cell apopt = inhibitors of cytokine-induced beta cell apoptosis, primary screen, luminescence | 0.8% of 300,000 active | protection from apoptosis, % (no concentration beside the values) | INS-1E cytokine-induced death, ATP luminescence, 48 h; percent of positive-control rescue, neutral wells zero;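 active = all replicates at 75% or more, or half of them and the mean; inconclusive = half reach 75% but not the mean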;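 also: 0% = cytokine-treated negative control wells and 100% = positive control rescue; higher means more ATP so stronger rescue from cytokine killing; wells of about 40 µL received 100 nL stock; the first replicate is given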
LANA-H2B inh = blockers of LANA interaction with H2A/H2B – biochemical, FP readout, HTS, primary screen. Protein LANA1 (Human herpesvirus 8 type P (isolate GK18)), Q9QR71. cell-free LANA-H2A/H2B peptide, fluorescence polarization. inhibition, % (test concentration not listed). 0.6% of 320,000 active; in the data active = inhibition mostly above about 10%, no sharp cut-off; inactive = mostly below about 6.7%;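 also: stock transfer was 7.5 nL into about 10 µL; 0% = median of vehicle wells and 100% = median of positive control wells; one replicate is shown; the record names a cut of 25% in any replicate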
Calb FLC = C. albicans growth inhibition with fluconazole, primary screen, CaCi-2 strain, Alamar Blue fluorescence | C. albicans CaCi-2 (fluconazole-resistant clinical isolate) + fluconazole, 48 h | growth inhibition, % (no concentration beside the values) | 0.57% of 300,000 active | AID 1979, 2009;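 active = most replicates above 75%; inconclusive = exactly half above 75%; inactive = most below 75%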;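 also: all wells also contain fluconazole at 8 µg/ml as a sub-toxic cotreatment; 0% = median of DMSO wells and 100% = median of geldanamycin control wells; wells of about 8 µL received 7.5 nL stock; the first replicate is given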
Vif TR-FRET = inhibitors of Vif binding to APOBEC3G peptide, primary screen, biochemical, TR-FRET, GST-Vif 1-94, biotin-A3G peptide, dose response retest (AID 1117319). Virion infectivity factor (Human immunodeficiency virus type 1 group M subtype B (isolate …. TR-FRET GST-Vif / biotin-A3G peptide binding; higher % means a stronger effect; test concentration not given here; strong numbers were not always called active. inhibition, %; hits with a dose series show IC50 in µM. 0.57% of 260,000 active;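 active = above the screen mean plus three standard deviations and confirmed in dose response; inconclusive = results disagree or hit not tested in dose response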;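 also: Vif residues 1-94 fused to GST binding biotinylated APOBEC3G peptide 110-148; 0% = full assay without inhibitor and 100% = GST in place of GST-Vif; retest series ran down from 100 µM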
Active calls of the source: *; u = inconclusive; x = not tested or not shown.

SMILES	Bfl-1 A1 inh	T cruzi repl	AF4-AF9 inh	RanGTP-Impb inh	Beta cell apopt	LANA-H2B inh	Calb FLC	Vif TR-FRET
COc1ccc(/C=C/C(=O)NC(=S)N2CCCCC2)cc1OC	0.2	-10	-1.6	4.2	-1	1.8	-4	x
O=C(Cc1ccc(Cl)cc1)NCC(=O)N1CCCC1	0.5	-6	x	u	1	5.7	3	6%
CCN(CC)S(=O)(=O)c1ccc(NC(=O)CSc2nnc(-c3cccc(OC)c3)n2C)cc1	0.9	14	-80	u	-1	3.5	u	71%
O=C(NC(=S)Nc1ccccc1)c1ccc(-c2ccccc2)cc1	-2.5	-5	-1.1	-0.9	11	-4.8	1	x
O=S(=O)(c1ccc(Br)cc1)N1CCCC1	-0.7	-8	-1.4	-2.0	-4	1.3	3	2%
CCCCn1c(O)c(N=NC(=O)c2ccccc2NS(=O)(=O)c2cccs2)c2ccccc21	0.6	-3	x	-3.6	3	-6.6	44	3%
O=C(NCC(=O)N(CCN1CCOCC1)C(C(=O)NC1CCCC1)c1cccnc1)c1cccs1 (stereo not given)	-0.4	-5	x	-0.1	-7	3.1	-5	-1%
Cc1c(C(=O)N2CCN(c3ccccn3)CC2)sc2ncnc(N3CCN(c4ccccc4)CC3)c12	-0.9	26	x	-5.4	2	0.9	11	x
O=C(CCNS(=O)(=O)/C=C/c1ccccc1)NCCc1c[nH]c2ccccc12	1.9	8	5.0	-1.1	-5	5.5	-4	-3%
CCOC(=O)c1ccc(NC(=O)Nc2ncccc2C)cc1	-0.1	0	0.6	-5.7	4	-6.7	-4	u
COc1ccc2nc(C(C)O)[nH]c2c1 (stereo not given)	0.0	-1	x	5.5	-7	-2.5	-11	4%
Cn1c(SCC(=O)Nc2nccs2)nnc1C12CC3CC(CC(C3)C1)C2	0.5	1	x	-1.5	-3	-0.4	-3	8%
CN1/C(=C\C(=O)CSc2cccc[n+]2[O-])C(C)(C)c2ccccc21	0.6	19	-1.3	1.3	14	2.8	-28	x
Nc1ccc(OCC(O)C[n+]2ccc(CCS(=O)(=O)[O-])cc2)cc1 (stereo not given)	0.2	-7	0.0	2.4	-6	-2.7	-2	x
CCCCNC(=O)c1sc(=S)n(-c2ccccc2OC)c1N	0.1	-4	x	-0.7	x	0.9	6	6%
CCOc1ccccc1C(=O)NCC(=O)N1CCN(Cc2ccc3c(c2)OCO3)CC1	-0.7	x	x	x	17	1.4	x	0%

Quoted at random: two records from the list, in no set order.
SMILES	Bfl-1 A1 inh	T cruzi repl	AF4-AF9 inh	RanGTP-Impb inh	Beta cell apopt	LANA-H2B inh	Calb FLC	Vif TR-FRET
Cn1c(SCC(=O)Nc2nccs2)nnc1C12CC3CC(CC(C3)C1)C2	0.5	1	x	-1.5	-3	-0.4	-3	8%
CCCCn1c(O)c(N=NC(=O)c2ccccc2NS(=O)(=O)c2cccs2)c2ccccc21	0.6	-3	x	-3.6	3	-6.6	44	3%

Twelve neighbouring records from above:
SMILES	Bfl-1 A1 inh	T cruzi repl	AF4-AF9 inh	RanGTP-Impb inh	Beta cell apopt	LANA-H2B inh	Calb FLC	Vif TR-FRET
COc1ccc(/C=C/C(=O)NC(=S)N2CCCCC2)cc1OC	0.2	-10	-1.6	4.2	-1	1.8	-4	x
O=C(Cc1ccc(Cl)cc1)NCC(=O)N1CCCC1	0.5	-6	x	u	1	5.7	3	6%
CCN(CC)S(=O)(=O)c1ccc(NC(=O)CSc2nnc(-c3cccc(OC)c3)n2C)cc1	0.9	14	-80	u	-1	3.5	u	71%
O=C(NC(=S)Nc1ccccc1)c1ccc(-c2ccccc2)cc1	-2.5	-5	-1.1	-0.9	11	-4.8	1	x
O=S(=O)(c1ccc(Br)cc1)N1CCCC1	-0.7	-8	-1.4	-2.0	-4	1.3	3	2%
CCCCn1c(O)c(N=NC(=O)c2ccccc2NS(=O)(=O)c2cccs2)c2ccccc21	0.6	-3	x	-3.6	3	-6.6	44	3%
O=C(NCC(=O)N(CCN1CCOCC1)C(C(=O)NC1CCCC1)c1cccnc1)c1cccs1 (stereo not given)	-0.4	-5	x	-0.1	-7	3.1	-5	-1%
Cc1c(C(=O)N2CCN(c3ccccn3)CC2)sc2ncnc(N3CCN(c4ccccc4)CC3)c12	-0.9	26	x	-5.4	2	0.9	11	x
O=C(CCNS(=O)(=O)/C=C/c1ccccc1)NCCc1c[nH]c2ccccc12	1.9	8	5.0	-1.1	-5	5.5	-4	-3%
CCOC(=O)c1ccc(NC(=O)Nc2ncccc2C)cc1	-0.1	0	0.6	-5.7	4	-6.7	-4	u
COc1ccc2nc(C(C)O)[nH]c2c1 (stereo not given)	0.0	-1	x	5.5	-7	-2.5	-11	4%
Cn1c(SCC(=O)Nc2nccs2)nnc1C12CC3CC(CC(C3)C1)C2	0.5	1	x	-1.5	-3	-0.4	-3	8%
